# HIV Env fusion: inhibitors of HIV-1 Env-driven cell-cell fusion, primary screen, HeLa-JRFL effector, CEM21 target cells, luciferase; inhibition, % at 12.3 µM; actives 1.1% (n = 360,000);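 active means mean replicate inhibition score of at least 50 and every replicate individually at or above 50; inconclusive means only one of the two criteria met; inactive means mean below 50 and not all replicates reaching 50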;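 further: 0% = plate neutral controls and 100% = maraviroc near 300 nM; one replicate is shown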
# CSC inhib: cancer stem cell viability inhibitors, primary screen, luminescence. actives 1.1% (n = 300,000). inhibition, % at 7.5 µM. AID 2717, 2010. cancer stem cell-like cells viability;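 active means mean at 75% or more and at least half the replicates too; inconclusive means mean and replicates disagree; tested in HMLE shEcad cells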;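 further: 0% = median of negative and 100% = median of positive control wells; the first replicate is given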
# Rce1 inhib: yeast Rce1p protease inhibitors, primary screen, biochemical, fluorescence, cell-free homogeneous; actives 0.27% (n = 290,000); AID 2563, 2010; calls only; yeast membranes, quenched prenylated peptide cleavage fluorescence;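 active means fall in fluorescence gain of 50% or more versus controls, with final raw signal at or below 3038400; inconclusive means same 50% fall but final raw signal above 3038400; inactive means fall in fluorescence gain under 50%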;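 further: plate controls were neutral control wells for no effect and wells lacking membranes for full effect; tested at 10 µM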
# Target sequence (Q03530 whole entry, looked up): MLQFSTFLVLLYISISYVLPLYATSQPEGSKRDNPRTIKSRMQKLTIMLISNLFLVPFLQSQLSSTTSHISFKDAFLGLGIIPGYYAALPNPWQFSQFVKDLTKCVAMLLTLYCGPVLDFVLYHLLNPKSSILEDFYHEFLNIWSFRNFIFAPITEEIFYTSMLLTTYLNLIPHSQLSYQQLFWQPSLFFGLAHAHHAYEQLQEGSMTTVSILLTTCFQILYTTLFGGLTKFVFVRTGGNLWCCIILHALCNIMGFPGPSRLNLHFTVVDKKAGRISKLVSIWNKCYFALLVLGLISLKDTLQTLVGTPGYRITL
# MT1-MMP act inh: blockers of MT1-MMP proenzyme processing, primary screen, HT1080 RFP-PRO-GFP cells, GFP/RFP fluorescence. Matrix metalloproteinase-14 (Homo sapiens), P50281. GFP/RFP ratio fluorescence, overnight; percent of plate control window, DMSO zero. actives 0.061% (n = 360,000). AID 651647, 2012. GFP/RFP ratio change, % at 20 µM;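 active means GFP/RFP ratio change of at least 30% with cell ATP level not reduced by more than half and red fluorescence within 50% of control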; further: strong numbers were not always called active
#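 Test system: HT1080 RFP-PRO-GFP cells; Benchmarks: DMSO and RFP-L50D-GFP cell wells; Timing: cells overnight before dosing, compound overnight, 37 °C, 5% CO2; Compound: one 20 µM compound dose with 1% DMSO; Read-out: GFP/RFP fluorescence ratio.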
# Yeast UUG start: modulators of yeast start codon fidelity, primary screen, whole organism, S. cerevisiae, single point, plate reader. S. cerevisiae UUG-firefly luciferase reporter, luminescence/redox ratio. activity score, % at 18.7 µM. actives 0.13% (n = 350,000). AID 602363, 2012;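 active means replicate mean at a twofold rise or more, about +100% in these data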;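 further: firefly luciferase made from a UUG start codon reports start codon fidelity; reporter light over untreated wells divided by growth signal over untreated wells; some hits fall short of that in this replicate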
# eIF4H inh: human eIF4H binding inhibitors, primary screen, translation initiation inhibitor project, biochemical, uHTS, fluorescence polarization; Eukaryotic translation initiation factor 4H (Homo sapiens), Q15056; eIF4H fluorescence polarization binding assay; inhibition, % at 35 µM; actives 0.94% (n = 290,000); AID 2012, 2009;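 active means 50% or more with normal probe brightness, or confirmed in later tests; inconclusive means above 50% with abnormal brightness, or retests that disagree; inactive means below 50% or failed in later tests; about a fifth of its hits are not listed in these tables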;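 further: calls also rest on retests at 20 µM and on dose response follow-up; 0% = protein and probe with vehicle and 100% = probe without protein; strong numbers were not always called active; many hits fall short of the cut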
# PABP FP inh: PABP poly(A) RNA binding inhibitors, primary screen, biochemical, fluorescence polarization, uHTS; actives 1% (n = 290,000); inhibition, % at 35 µM; Polyadenylate-binding protein 1 (Homo sapiens), P11940; AID 2014, 2009;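 active means 50% or more with normal probe brightness, or confirmed in later tests; inconclusive means above 50% with abnormal brightness, or retests that disagree; inactive means below 50% or failed in later tests; about a fifth of its hits are not listed in these tables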;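 further: calls also rest on retests at 20 µM and on dose response follow-up; controls were probe without protein and protein plus probe with vehicle; some compounds called inactive have numbers as strong as hits; many hits fall short of the cut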
# Target sequence (P11940 whole entry, looked up): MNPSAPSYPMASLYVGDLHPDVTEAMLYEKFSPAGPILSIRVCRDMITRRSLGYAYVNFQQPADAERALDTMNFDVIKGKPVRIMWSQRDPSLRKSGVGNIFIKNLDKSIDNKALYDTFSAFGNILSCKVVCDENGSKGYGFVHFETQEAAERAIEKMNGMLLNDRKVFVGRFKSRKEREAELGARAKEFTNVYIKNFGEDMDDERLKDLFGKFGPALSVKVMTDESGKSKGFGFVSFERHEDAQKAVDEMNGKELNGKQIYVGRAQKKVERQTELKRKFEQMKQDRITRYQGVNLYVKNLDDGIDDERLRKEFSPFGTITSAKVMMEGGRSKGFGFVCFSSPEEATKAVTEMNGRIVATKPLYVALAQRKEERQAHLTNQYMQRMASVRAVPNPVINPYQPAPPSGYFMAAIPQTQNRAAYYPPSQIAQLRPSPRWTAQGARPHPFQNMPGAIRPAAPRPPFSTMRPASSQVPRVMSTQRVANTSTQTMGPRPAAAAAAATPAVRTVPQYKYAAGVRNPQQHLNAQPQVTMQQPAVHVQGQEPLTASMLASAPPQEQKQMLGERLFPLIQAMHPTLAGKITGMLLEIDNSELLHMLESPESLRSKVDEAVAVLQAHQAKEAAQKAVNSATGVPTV
# eIF4H inh retest: further read-out of eIF4H inh, marked with its call; inhibition, %; compound at 20 µM; confirmation average;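 mean of two retest wells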
# PABP FP inh retest: second read-out of PABP FP inh, no call of its own (marks repeat the call); inhibition, %; compound at 20 µM; confirmation repeats;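 mean of two retest wells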
# MT1-MMP act inh RFP: recorded beside MT1-MMP act inh, whose call it bears; RFP signal change, %; measured here: RFP expression control read;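 0 = vehicle wells; hits needed this value within 50% of zero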
# * hit, by the source's call; i = inactive; ? = inconclusive; nt = not tested or not shown.
SMILES,HIV Env fusion,CSC inhib,Rce1 inhib,MT1-MMP act inh,MT1-MMP act inh RFP,Yeast UUG start,eIF4H inh,PABP FP inh,others
CCOc1ccc(-c2cc(C)[n+](CCN(CC)CC)c(-c3ccc(OCC)cc3)c2)cc1,50,6,i,-14,-35,-21,-8,0,
O=c1c2ccccc2nc(-c2ccco2)n1-c1ccncc1,nt,0,i,-2,1,-8,-6,-13,
Cc1ccc(O)c(C(=O)c2cc(C(=O)NCCC(C)C)c(=O)n(CCC(C)C)c2)c1,37,-4,i,-25,-21,nt,-5,-1,
CCOC(=O)c1ccc(N=C(C)c2c(O)[nH]c(=O)[nH]c2=O)cc1,16,-12,i,0,1,-12,-4,2,
COC(=O)C1=C(c2ccc(C(C)=O)cc2)C[C@@H]2CC[C@H]1N2C(=O)NCC1CC1,nt,-14,nt,-2,-1,6,nt,nt,
CCOc1cc(C)cc2oc(=O)c3c(c12)CCCC3,0,-2,i,-5,-3,-23,0,2,
Cc1cccc(NC(=O)CN2CCN(C(=O)COc3cccc(Br)c3)CC2)c1C,4,-15,nt,5,-4,9,nt,nt,
C=CCN1C(=O)C2(C(C(=O)OCC)=C(N)Oc3ccccc32)C2=C1CCCC2=O (configuration not stated),-27,2,i,5,6,-10,-11,-2,
CC[C@H](C)/C=C(C)/C=C/C1=CC2=C(Cl)C(=O)[C@@](C)(OC(C)=O)C(=O)C2=CO1,nt,-15,i,1,5,nt,nt,nt,
Cc1ccc(N2C(=O)NC(=O)C(CCc3ccccn3)(Cc3cccc(Cl)c3Cl)C2=O)cc1 (configuration not stated),-102,-8,i,4,8,-16,3,9,
CN1C(CC(O)c2ccccc2)CCCC1CC(O)c1ccccc1 (configuration not stated),nt,3,nt,0,7,-6,nt,nt,
COc1cc(CNCCc2ccc3c(c2)OCO3)cc(OC)c1OC,4,-3,i,3,4,nt,2,-9,
Cc1cccc(OCC(O)CN2CC2)c1 (configuration not stated),8,nt,nt,0,1,143*,nt,nt,
CCN(CC)c1ccc(/C=C2/C(=O)NC(=O)N(Cc3ccco3)C2=O)cc1,-28,-7,i,-44,8,nt,?,8,
COCCNC(=O)Cn1cc(/C=C2\C(=O)NC(=O)N(c3cccc(C)c3C)C2=O)c2ccccc21,-1,9,i,-5,0,4,?,?,
CCCOP(=O)(OCCC)C(NC(=O)c1cc(OC)c(OC)c(OC)c1)c1ccccc1 (configuration not stated),7,nt,i,-1,4,7,1,8,
CC1(C)CSC(=NCc2ccccc2)N1,4,7,i,-4,4,-10,-6,4,
Cc1ccc(S(=O)(=O)N2CC3CC(C2)c2cccc(=O)n2C3)cc1 (configuration not stated),nt,-8,i,3,2,-8,-2,-9,
Cc1[nH]c2ccccc2c1CCCNC1CCCCC1,16,10,i,4,-3,10,26,-4,
Cc1ccc(C2(O)CN3CCC2CC3)cc1 (configuration not stated),-8,-5,i,0,4,-17,1,1,
N/C(=N\N=C\c1ccc(O)cc1O)N[N+](=O)[O-],-7,-1,i,3,4,-2,16,30,
N#CC1C(C#N)C2CCC1C1C2N1c1ccccc1 (configuration not stated),-100,nt,nt,0,4,-17,nt,nt,
Nc1ccc(CC(N)c2csc(Nc3ncccn3)n2)cc1 (configuration not stated),-18,nt,nt,3,-3,-16,nt,nt,
O=C(Cn1ccc2ccccc2c1=O)NCC(=O)N1CCC2(CC1)OCCO2,0,-4,i,2,3,-2,-2,6,
COc1ccc(-c2ccc3c(c2)CN(C(=O)CCc2ccccc2)Cc2cnnn2-3)cc1,-15,nt,nt,-2,-6,-18,nt,nt,
# Additional results.
SMILES,HIV Env fusion,CSC inhib,Rce1 inhib,MT1-MMP act inh,MT1-MMP act inh RFP,Yeast UUG start,eIF4H inh,PABP FP inh,others
Cn1c(O)c(/C=C2\C=Nc3ccccc32)c(=O)n(C)c1=O,-1,0,i,-25,6,-15,?,?,
O=C1NC(=O)C(=C/C=C/c2coc3ccc(Br)cc3c2=O)C(=O)N1,nt,4,i,nt,nt,nt,?,?,
Fc1ccc(Cn2nnnc2C(c2ccc(Cl)cc2)N2CC=C(c3ccc(F)cc3)CC2)cc1 (configuration not stated),-21,9,i,-9,-11,-14,-12,-8,
COc1ccc(OC)c(N2C(=O)NC(=O)/C(=C\c3ccc([N+](=O)[O-])s3)C2=O)c1,18,-11,i,-1,12,0,69,10,eIF4H inh retest=17;PABP FP inh retest=28
Cc1ccc(CN2CCCC(C(=O)c3ccc4c(c3)OCO4)C2)cc1C (configuration not stated),6,2,i,7,8,-6,-4,-8,
O=C(O)CC1OCC=C2CN3CCC45C6=CC(=O)C(=O)C([N+](=O)[O-])=C6NC4C1C2CC35 (configuration not stated),nt,7,i,9,3,-14,11,4,
COC(=O)c1cc(C(O)(C(=O)OC)C(F)(F)F)c(/N=C/N(C)C)s1 (configuration not stated),nt,-15,i,-1,-1,-15,-9,6,
CCCC[N+]12CCC(CC1)C(Cc1ccccc1)C2 (configuration not stated),-1,-2,i,-11,-2,-8,-11,5,
COC(=O)C1=C(c2ccc(OC(F)(F)F)cc2)C[C@@H]2CC[C@H]1N2C(=O)NC1Cc2ccccc2C1,4,0,nt,5,-1,0,nt,nt,
CC=C(C)C(=O)OC1CCN2CC=C(COC(=O)C(O)(C(C)OC)C(C)(C)O)C12 (configuration not stated),8,nt,nt,-1,0,-8,nt,nt,
O=C1NC(=O)C(CCc2ccncc2)(CCc2ccncc2)C(=O)N1Cc1ccc(F)cc1,30,-12,i,-5,-6,nt,1,1,
CCCCn1c(=O)c(C(=O)Nc2ccccc2)c(O)c2ccccc21,2,45,i,-4,-2,nt,2,7,
C[C@]12CCC3C(CC[C@H]4C[C@@H](O)[C@H](O)C[C@]34C)C1CC[C@@H]2O (some centres not stated),-44,-10,nt,0,-2,nt,nt,nt,
CCCCn1c(O)c(C(CC)=Nc2ccc(OC)cc2OC)c(=O)[nH]c1=O,18,34,i,4,3,0,-22,-3,
COC(=O)C(O)(c1c(C)[nH]n(-c2ccccc2)c1=O)C(F)(F)F (configuration not stated),nt,-7,i,5,2,nt,-6,-4,
O=C(NC1(C(F)(F)F)Oc2ccccc2O1)N1CCC2(CC1)OCCO2,-4,nt,i,6,-2,-9,53,6,eIF4H inh retest=1;PABP FP inh retest=5
C[C@@H]([C@@H](O)c1ccccc1)N(C)C(=O)Cc1ccccc1,-85,-10,i,1,1,-1,nt,nt,
COC(=O)C1=C(c2ccc(F)cc2OCc2ccccc2)C[C@@H]2CC[C@H]1N2C(=O)NCc1ccccc1C(F)(F)F,1,14,nt,-16,-14,-17,nt,nt,
O=C1NC(=S)N(c2ccccc2F)C(=O)/C1=C\c1cccs1,1,3,i,67,89,-10,-10,1,
CCOC(=O)c1c(NS(=O)(=O)c2ccccc2)n(CCCOC)c2nc3ccccc3nc12,nt,1,i,nt,nt,nt,5,-10,
CC(C)c1ccc(NC(=O)CCNC(=O)N2C[C@H]3C[C@@H](C2)c2cccc(=O)n2C3)cc1,nt,-6,nt,3,6,-18,-4,-5,
O=C(CNC(=O)c1cccc(Cl)c1)Nc1ccc(Br)cc1C(=O)c1ccccc1,nt,-2,i,-2,-4,nt,1,-4,
COc1ccccc1OCC#CCN1CCCC1,-2,-13,i,4,2,-4,9,5,
Cc1cc(Cl)ccc1OCC(=O)N1CCN(C)CC1,nt,nt,i,3,0,9,8,-2,
CCC(=NCC1CCCO1)c1c(O)[nH]c(=O)[nH]c1=O (configuration not stated),nt,-9,i,-1,-3,-1,-3,10,
# Next section:
SMILES,HIV Env fusion,CSC inhib,Rce1 inhib,MT1-MMP act inh,MT1-MMP act inh RFP,Yeast UUG start,eIF4H inh,PABP FP inh,others
O=C(CN1CCCCC1)c1ccccc1F,-2,-18,i,6,3,nt,3,10,
CN(C)CCCN=Cc1c(O)n(Cc2ccco2)c(=O)[nH]c1=O,3,0,i,2,5,-22,-9,3,
CCn1cc(C(=O)N2CCOCC2)c2ccccc21,5,nt,i,-1,2,nt,-4,8,
Cc1ccc(CN2CCCN(Cc3ccccc3C)S2(=O)=O)cc1,12,16,i,2,0,-19,2,4,
CC(=NCc1cccnc1)c1c(O)n(-c2ccccc2)c(=O)[nH]c1=O,nt,-2,i,1,0,0,-7,0,
Nc1c(C(=O)NCc2ccco2)c2nc3ccccc3nc2n1Cc1ccccc1,17,1,i,-17,1,nt,-8,8,
COc1cc2[nH]c(C(=O)N3CCC4(CC3)OCCO4)cc2c(OC)c1OC,-8,-9,i,-4,1,-3,-9,-6,
Cc1cc(=O)oc2cc(OCC(=O)N3C[C@H]4C[C@@H](C3)c3cccc(=O)n3C4)c(Cl)cc12,nt,-8,i,2,4,-4,4,12,
COCCNC(=O)c1c(N)n(CCC(C)C)c2nc3ccccc3nc12,59*,24,i,-18,-1,6,0,8,
CCOc1ccc(NC(=O)c2ccc(NC(=O)COC(=O)Cc3ccccc3)cc2)cc1,-24,-7,nt,1,4,nt,2,21,
O=C(C(Cc1ccccc1)NS(=O)(=O)c1ccc(F)cc1)N1CCC2(CC1)OCCO2 (configuration not stated),nt,-1,i,-2,3,-18,1,3,
Cc1cc2ccccc2c(=O)n1CC(=O)NCC(=O)N1CCC2(CC1)OCCO2,15,1,i,4,3,nt,-4,6,
COC(=O)C1=C(c2ccc(OC(F)(F)F)cc2)C[C@@H]2CC[C@H]1N2C(=O)NCc1cccc2ccccc12,6,34,nt,1,-12,17,nt,nt,
CC(C)c1ccc(OCC(=O)N2CCCN(C)CC2)cc1,nt,24,i,-1,-4,-3,-9,0,
CN(C=O)CP(=O)(O)CN(C)C=O,nt,-9,i,-1,3,-19,-2,5,
CC(C)(C)OC(=O)c1c(N)n(Cc2ccco2)c2nc3ccccc3nc12,-8,13,i,-83,4,-17,?,?,
CCCCNC(=O)c1c(N)n(Cc2ccc3c(c2)OCO3)c2nc3ccccc3nc12,nt,12,i,-38,-6,-17,-2,-2,
CN(C)C(=O)Oc1ccc(Br)c2ccccc12,-3,9,i,-5,-3,-23,-10,-5,
c1cncc(CNC2CCCC2)c1,11,15,i,1,5,nt,2,15,
COc1ccc(C(Nc2ccccc2)P(=O)(Oc2ccccc2)Oc2ccccc2)cc1 (configuration not stated),1,nt,i,1,2,-14,-3,-3,
CCOP(=S)(OCC)SCC(=O)NC(C(=O)O)C(C)C (configuration not stated),-168,nt,i,-3,-7,-8,-4,2,
N[C@@H](Cc1c[nH]c2ccccc12)c1nnc(SCc2ccc(Cl)cc2)o1,-4,14,i,8,-1,-9,-7,3,
O=C1CC(=O)N(Cc2ccccc2)C(=O)N1CCCCCCN1C(=O)CC(=O)N(Cc2ccccc2)C1=O,-3,-9,i,-73,15,0,58,26*,eIF4H inh retest=19;PABP FP inh retest=112*
COc1ccc(C2=CC(c3ccc(OC)c(OC)c3)c3c(c4ccccc4oc3=O)O2)cc1OC (configuration not stated),-27,54,i,-20,-16,-23,-2,6,

# From PubChem BioAssay

# These rows are one share of the data, so the mix of outcomes need not match the whole.
